# Source: PubChem
# Bfl-1 A1 inh = inhibitors of the anti-apoptotic protein A1, read as caspase activation. MEF A1-2A-BIM cells, Caspase-Glo 3/7 luminescence, 3 h; percent of clofoctol response, vehicle zero. caspase activation, % (no concentration beside the values). 0.066% of 330,000 active;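 active = over half of replicate activation scores above 10%, or exactly half above 10 with the replicate mean above 10; inconclusive = replicate mean below 10 yet half the replicates above 10; inactive = over half of replicates below 10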;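 also: wells of about 30 µL received 50 nL stock; many hits fall short of the cut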
# MLL AF4-AF9 inh = inhibitors of human MLL-AF4/AF9 interaction; 0.47% of 350,000 active; inhibition, % at 10 µM; P42568; AlphaScreen, biotin-AF4 peptide binding to FLAG-AF9;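 active = every replicate reaching a set inhibition limit, whatever the replicate mean, cut at about 25% in these data; inconclusive = mean inhibition reaches that limit but some replicates miss it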;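 also: 0% = plate neutral control median and 100% = total signal loss; the record names both 10 and 1 µM as test concentration; the first replicate is given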
# Target sequence (P42568 whole entry, looked up): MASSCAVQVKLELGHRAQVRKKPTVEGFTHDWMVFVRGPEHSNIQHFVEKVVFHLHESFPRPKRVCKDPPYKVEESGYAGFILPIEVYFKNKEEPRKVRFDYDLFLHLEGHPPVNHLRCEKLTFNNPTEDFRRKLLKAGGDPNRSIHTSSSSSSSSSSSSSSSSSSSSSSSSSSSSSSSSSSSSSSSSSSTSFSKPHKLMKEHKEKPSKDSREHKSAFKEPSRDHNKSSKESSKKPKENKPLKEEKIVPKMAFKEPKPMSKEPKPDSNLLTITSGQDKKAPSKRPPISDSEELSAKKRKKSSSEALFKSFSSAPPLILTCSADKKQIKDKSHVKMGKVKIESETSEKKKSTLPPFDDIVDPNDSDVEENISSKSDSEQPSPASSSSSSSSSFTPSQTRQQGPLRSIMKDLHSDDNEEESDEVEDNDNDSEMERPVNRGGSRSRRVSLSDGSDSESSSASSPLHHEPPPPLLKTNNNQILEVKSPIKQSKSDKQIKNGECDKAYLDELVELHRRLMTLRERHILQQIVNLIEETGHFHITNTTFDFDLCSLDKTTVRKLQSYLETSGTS
# UCH37 DUB inh = human UCH37 deubiquitinating enzyme inhibition; 0.33% of 330,000 active; AID 588478; purified proteasome/UCH37, Ub-AMC cleavage fluorescence; inhibition, % (no concentration beside the values); Q9Y5K5;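 active = mean of two replicates above 20%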;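 also: 0% = compound-free wells with enzyme and 100% = wells lacking proteasome; stock transfer was 100 nL into about 20 µL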
# Target sequence (Q9Y5K5 whole entry, looked up): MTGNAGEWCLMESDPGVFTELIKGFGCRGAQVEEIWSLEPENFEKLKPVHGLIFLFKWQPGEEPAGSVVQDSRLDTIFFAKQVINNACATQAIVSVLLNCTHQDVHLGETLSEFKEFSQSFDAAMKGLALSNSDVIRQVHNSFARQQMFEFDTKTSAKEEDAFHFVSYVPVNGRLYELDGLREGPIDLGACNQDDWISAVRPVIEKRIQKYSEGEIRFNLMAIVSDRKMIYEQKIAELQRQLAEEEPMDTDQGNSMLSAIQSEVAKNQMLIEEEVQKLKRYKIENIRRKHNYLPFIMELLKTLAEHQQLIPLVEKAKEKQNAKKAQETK
#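 Material: Human UCH37 enzyme supplied as purified proteasome complex | Schedule: 30 min preincubation with enzyme, 25 min cleavage at room temperature | Detection: AMC fluorescence 355/460 nm | Measure: % inhibition of Ub-AMC cleavage fluorescence | Controls: Wells without proteasome as full block, compound-free enzyme plus substrate as uninhibited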
# Ecoli growth = inhibitors of Escherichia coli growth; OD600, 23 h; stronger effect = lower value; OD600 absorbance (no concentration beside the values); 0.21% of 330,000 active; AID 1053175;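 active = OD600 absorbance below the run mean of sample wells minus 3.6 SD, in any replicate, cut at about 0.56 in these data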;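 also: stock transfer was 300 nL into about 60 µL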
# FGF22 binding = binders of recombinant human FGF22 by thermal shift. SYPRO orange fluorescence; percent of sucrose octasulfate shift, DMSO zero. Q9HCT0. 1.5% of 340,000 active. calls only at 9.99 µM;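 active = melting point raised past a set limit in the mean and every replicate; inconclusive = no clear call; three in four hits are not shown here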
# Target sequence (Q9HCT0 whole entry, looked up): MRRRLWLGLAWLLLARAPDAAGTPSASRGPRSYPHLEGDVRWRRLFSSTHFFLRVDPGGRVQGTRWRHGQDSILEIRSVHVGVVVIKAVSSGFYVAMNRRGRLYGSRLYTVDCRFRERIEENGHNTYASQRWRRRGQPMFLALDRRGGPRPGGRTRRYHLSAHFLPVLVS
# Ecoli rRNA inh = inhibitors of bacterial rRNA selective over humanized ribosomes | 1.6% of 350,000 active | E. coli WT GFP vs humanized-ribosome RFP mutants, fluorescence, 24 h; stronger effect = lower value; DMSO median 0, no signal -100 | GFP signal change (wild-type ribosome), % (test concentration not listed) | AID 720706;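 active = significant combined selectivity score with lowered wild-type GFP, culture density cut under 30%, mutant RFP and density less affected; inactive = any of these conditions unmet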; also: one replicate is shown; some compounds called inactive have numbers as strong as hits
# Beta apoptosis = beta cell apoptosis inhibition; INS-1E cytokine-induced death, ATP luminescence, 48 h; percent of positive-control rescue, neutral wells zero; protection from apoptosis, % (test concentration not listed); 0.8% of 300,000 active;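 active = all replicates at 75% or more, or half of them and the mean; inconclusive = half reach 75% but not the mean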;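 also: 0% = cytokine-treated negative control wells and 100% = positive control rescue; higher means more ATP so stronger rescue from cytokine killing; wells of about 40 µL received 100 nL stock; the first replicate is given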
# T cruzi inh = blocks replication of Trypanosoma cruzi. T. cruzi beta-gal in NIH3T3, luminescence, 90 h. inhibition, % (concentration not given with the values). 1.4% of 300,000 active. AID 1885;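 active = mean inhibition across valid replicates above about 55%, limit read from the data; inconclusive = mean below that limit but half or more replicates reach it; inactive = mean below it, under half of replicates reach it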;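 also: signal also drops with host cell toxicity which is not excluded here; 0% = plate median of DMSO wells and 100% = zero luminescence signal; higher percent means less beta-gal luminescence so fewer parasites; stock transfer was 50 nL into about 50 µL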
# Ecoli rRNA inh OD600 = second read-out of Ecoli rRNA inh, no call of its own (marks repeat the call); OD600 change, %; measured here: OD600 growth;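 optical density of the mix in the first replicate; 0 = DMSO median and -100 = no signal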
# Ecoli rRNA inh RFP = recorded beside Ecoli rRNA inh, whose call it bears; RFP signal change, %; measured here: RFP humanized mutant strains;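 first replicate; 0 = DMSO median and -100 = no signal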
# Numbers without * were called inactive; i = inactive; ? = inconclusive; / = no result given. This is a subset; count on the stated rates, not on these rows.
SMILES,Bfl-1 A1 inh,MLL AF4-AF9 inh,UCH37 DUB inh,Ecoli growth,FGF22 binding,Ecoli rRNA inh,Ecoli rRNA inh OD600,Ecoli rRNA inh RFP,Beta apoptosis,T cruzi inh
CC1(c2nnc(-c3ccccc3)o2)CC(c2ccc(Cl)cc2)=NO1 (stereo not given),0.7,-2.2,5.4,0.642,i,-20.2,-33.0,-8.5,-5.9,-8.6
CC(C)CN(C(=O)CCC(=O)OCC(=O)c1ccc(F)c(F)c1)c1c(N)n(CC(C)C)c(=O)[nH]c1=O,-0.4,2.6,4.3,0.669,i,3.5,9.6,-0.7,-6.6,-6.5
Cc1ccc(CSc2nnc(SCC(=O)N/N=C/c3c[nH]c4ccccc34)s2)cc1,/,-2.1,/,/,i,6.4,13.6,0.8,/,-32.7
COc1cc(C(=O)NC(C)C2CC3CCC2C3)cc(OC)c1OC (stereo not given),0.9,-4.4,0.0,0.66,i,5.4,11.2,1.6,6.1,-9.7
CC(=O)Nc1ccc(SC(C)C(=O)NC(N)=O)cc1 (stereo not given),0.3,/,3.8,0.649,/,/,/,/,-1.0,-2.0
CC(C)(C)C(=O)C[n+]1ccc(C(N)=O)cc1,-1.2,0.1,/,/,i,11.2,8.2,-1.5,-2.5,-14.3
CCOc1ccc(C2NC(=O)NC(c3ccccc3)=C2C(C)=O)cc1OC (stereo not given),0.1,-1.7,6.2,0.645,i,0.8,2.5,-1.5,-9.0,0.6
COc1ccc(CN2CCNC(=O)C2CC(=O)NC2CCCCCCC2)cc1C (stereo not given),0.5,6.5,-3.3,0.689,i,-11.1,-14.8,5.8,-0.1,13.3
COC(=O)C(c1ccccc1)N(Cc1cccc(CN(C(C(=O)OC)c2ccccc2)S(C)(=O)=O)c1)S(C)(=O)=O (stereo not given),?,1.6,4.5,0.72,i,0.7,-16.9,-7.9,0.8,18.0
COc1cc(OC)cc(C(=O)NCC(=O)N2CCCCCCC2)c1,0.3,0.0,0.8,0.652,i,/,/,/,-1.1,/
CCC(C)NC(=O)CC(c1ccc(OC)cc1)n1cccc1 (stereo not given),-0.8,/,-5.0,0.747,/,/,/,/,-1.9,-5.4
CCCC(=O)Nc1cc(C)c2c(=O)oc3ccccc3c2n1,0.1,-2.4,0.9,0.72,i,-9.6,-12.5,-4.6,7.1,13.5
CCCCC(=O)NS(=O)(=O)c1ccc(N=NN2CCOCC2)cc1,-0.6,0.3,7.4,0.694,i,-8.2,7.8,-0.5,-12.3,-7.5
Cc1sc2nc(SC3CCOC3=O)n(Cc3ccccc3)c(=O)c2c1C (stereo not given),1.1,0.8,5.1,0.714,i,-23.9,-25.4,-7.1,0.4,-2.2
CC1=C(C(=O)Nc2cccnc2)C(c2ccc3c(c2)OCO3)C2=C(CCCC2=O)N1 (stereo not given),-0.9,/,-44.9,0.772,/,/,/,/,-3.4,-7.4
c1ccc(C2CNCc3c2ccc2ccccc32)cc1 (stereo not given),-0.1,4.0,3.3,0.612,i,-11.7,-31.6,9.8,3.5,0.6
CCC(CC)C(=O)NCCc1ccc(S(N)(=O)=O)cc1,0.4,/,2.5,0.729,/,/,/,/,3.6,-12.1
CCCCc1nnc(NC(=O)c2nc3nccc(C)n3n2)s1,-0.9,-2.2,4.7,0.674,i,8.5,-0.7,-2.3,-3.4,2.6
O=C(NC(C(=O)N/N=C/c1ccccn1)c1n[nH]c(=O)c2ccccc12)c1ccccc1 (stereo not given),-0.1,-0.4,/,/,i,4.6,13.4,2.0,-2.7,-11.5
CCOC(=O)C1CCN(c2c(NCCN(CC)c3ccccc3)c(=O)c2=O)CC1,0.2,-27.8,-0.9,0.675,i,3.1,4.1,0.9,-2.2,-4.1
Cc1nnc(NC(=O)CSc2nnc(CNC(=O)c3ccccc3)n2-c2ccccc2)s1,-0.4,-4.5,0.9,0.749,i,1.5,5.1,-2.8,-2.9,-12.9
Cc1ccc(NC(=O)CSc2nnc(Cc3ccccc3)c(=O)[nH]2)c(C)c1,0.7,-0.2,4.9,0.656,i,2.6,3.8,-3.8,/,7.9
Cn1ccnc1Sc1cc(NCCCO)c([N+](=O)[O-])c2nonc12,0.2,4.9,/,/,i,12.6,15.6,-0.5,-11.0,44.3
Cc1c2cnn(CC(=O)NCCN3CCOCC3)c(=O)c2c(C)n1Cc1ccccc1F,/,-4.9,6.4,0.728,i,5.9,19.2,-1.8,/,/
Cc1ccccc1N=C1NC(=O)/C(=C/c2cccnc2)S1,-0.9,0.5,10.0,0.621,i,/,/,/,-2.4,-2.3
O=C(NNC(=S)NC(=O)c1ccccc1[N+](=O)[O-])c1ccccc1,1.0,/,6.9,0.625,/,/,/,/,0.3,-30.9
C1=C(c2ccccc2)N2CCN=C2S1,0.2,/,1.7,0.645,/,/,/,/,3.2,-11.9
COc1ccccc1-n1cnnc1SC(C)C(=O)Nc1cccc([N+](=O)[O-])c1 (stereo not given),1.3,2.1,4.2,0.693,i,2.1,-3.8,-2.0,-0.6,-9.2
COc1ccc(OC)c(C(=O)c2ccc(C(=O)Nc3cccc4ccccc34)cc2)c1,0.7,-4.9,1.5,0.686,i,/,/,/,-3.6,-18.3
CCOC(=O)c1nnn2c1nc(SCC(C)=O)c1ccccc12,-0.4,-1.6,6.6,0.634,i,1.7,-10.4,-2.3,6.6,-6.5
CC(C)(C)C(=O)c1cnc(Nc2ccccc2)s1,-2.0,/,-4.8,0.731,/,/,/,/,-0.1,22.0
CCC(Sc1ccc(C(=O)O)cc1)C(=O)O (stereo not given),1.1,/,0.6,0.683,/,/,/,/,0.6,-2.4
O=C(Cc1ccc(Cl)cc1)Nc1ccccc1C(=O)N1CCCC1,-1.8,-1.0,1.1,0.671,i,14.0,4.7,0.9,-4.6,-11.0
CCOC(=O)C(=O)NCC(c1cccs1)S(=O)(=O)c1ccc(F)cc1 (stereo not given),1.1,-1.3,1.6,0.632,i,13.5,10.3,2.8,-0.6,-0.3
O=C(Nc1ccccc1F)c1c[nH]c(=O)[nH]c1=O,-5.9,-0.5,2.4,0.678,i,6.9,3.1,-0.5,0.5,-0.8
Cc1ccccc1-c1nnc(SCc2ccc(F)cc2)o1,-0.6,/,5.2,0.707,/,-19.7,-29.8,-10.4,3.6,8.5
CCOc1cc(CNCC2CCCO2)cc(Br)c1OCC(N)=O (stereo not given),-0.2,/,7.2,0.686,/,2.6,15.0,1.5,-0.8,-16.2
CCN(c1ccccc1)S(=O)(=O)c1ccc(Cl)c(NC(=O)COC(=O)c2ccc(O)cc2)c1,-0.4,/,1.1,0.717,/,/,/,/,1.0,9.4
COc1ccccc1NC(=S)N(Cc1ccco1)Cc1cc2cccc(C)c2[nH]c1=O,-0.5,/,4.1,0.72,/,/,/,/,-6.1,-6.6
Cc1ccc(C(=O)Nc2onc(C)c2C#N)cc1,-0.3,/,2.3,0.763,/,/,/,/,-3.3,-8.5
COC(=O)c1c(-c2ccsc2)sc2ccc(-c3cc(OC)c(OC)c(OC)c3)cc12,-0.7,6.4,3.2,0.732,i,9.0,17.8,14.0,1.3,/
C=C[C@](C)(CC[C@@]1(C)C(C)CC(OC2OC(C)C(OC3OC(COC(C)=O)C(O)C(O)C3O)C(O)C2O)[C@@]2(C)C(C)=CCCC12)OC1OC(C)C(O[C@@H]2O[C@@H](C)C(O)C(O)[C@H]2O)C(O)C1O (stereo not given in full),-0.9,/,0.6,0.665,/,/,/,/,0.2,/
c1ccc(CSc2ccc(-c3cccnc3)nn2)nc1,-0.2,-1.0,6.8,0.653,i,10.5,4.1,2.6,-14.3,-6.7
COc1ccc(CCNC(=O)CC(=O)N/N=C/c2ccc(C(=O)O)cc2)cc1OC,0.4,2.0,/,/,i,6.0,7.2,-6.4,-3.3,3.6
Cc1nnsc1C(=O)N1CCCC(N2CCN(c3cccc(C(F)(F)F)c3)CC2)C1 (stereo not given),1.5,-13.5,-0.4,0.7,i,0.7,-2.6,0.5,-0.3,2.9
Cc1cc(NS(=O)(=O)c2ccc(NC(=O)CSc3nc4ncc(Br)cc4[nH]3)cc2)nc(C)n1,0.3,-16.5,4.1,0.689,i,7.6,-0.6,-2.0,-4.2,-6.5
COc1cc(OC)cc(C(=O)NCC(=O)Nc2ccc(OC)c(Cl)c2)c1,0.6,1.4,1.2,0.643,i,-17.8,-11.1,-5.1,-4.9,-8.8
CCOc1ccc(Cn2ccnc2CCl)cc1[N+](=O)[O-],0.1,/,4.0,0.691,/,/,/,/,-5.3,1.1
Cc1oc2c(C)c3oc(=O)c(CCC(=O)NCCCn4ccnc4)c(C)c3cc2c1C,-0.1,3.2,-16.7,0.707,i,/,/,/,-3.2,8.3
Cc1cccc(C(=O)O/N=C(/c2ccccc2)c2ccncc2)c1,-1.0,0.6,/,/,i,2.7,8.6,0.6,-0.5,-0.5
COc1ccc(N(CC(=O)NN=C2CCCCCCC2)S(=O)(=O)c2ccccc2)cc1,0.4,6.7,0.8,0.65,i,10.3,-3.8,-0.5,2.4,-4.1
C=C(C)COc1ccc(-c2nc(N)ncc2-c2ccc(Br)cc2)c(O)c1,0.0,15.7,2.1,0.675,i,3.7,0.6,-2.9,-2.2,19.6
O=C1NC(c2ccccc2)C(C(=O)c2cccs2)=C1O (stereo not given),-0.2,/,12.7,0.696,/,/,/,/,-3.0,-1.3
O=C(CN(C(=O)c1csnn1)c1cccc2ccccc12)NCc1ccccc1,0.3,5.0,0.1,0.671,i,-4.4,-7.9,-2.4,1.2,-6.3
O=c1oc2ccccc2n1Cn1c(=O)oc2ccccc21,0.6,/,1.8,0.705,/,/,/,/,-0.2,-9.1
Cc1ccc2c(c1)C(c1ccccc1)CC(=O)O2 (stereo not given),-0.3,-10.4,6.2,0.67,i,-15.1,-2.2,-1.1,/,-2.8
COc1ccc(-c2cc(C)no2)cc1S(=O)(=O)N1CCCN(Cc2ccccc2Cl)C1,0.2,-2.0,7.8,0.69,i,3.5,-4.6,4.2,3.4,20.6
CC(C)(C)OC(=O)NNc1c2ccccc2nc2ccccc12,0.7,17.8,-18.0,0.614,i,-20.2,-31.4,-12.7,24.9,23.8
CSC1=NS(=O)(=O)c2c(C)nn(C)c2S1,0.3,/,/,/,i,15.1,11.2,3.8,-6.2,-15.0

# In the list so far, 2 have a COOH group.
SMILES,Bfl-1 A1 inh,MLL AF4-AF9 inh,UCH37 DUB inh,Ecoli growth,FGF22 binding,Ecoli rRNA inh,Ecoli rRNA inh OD600,Ecoli rRNA inh RFP,Beta apoptosis,T cruzi inh
CCC(Sc1ccc(C(=O)O)cc1)C(=O)O (stereo not given),1.1,/,0.6,0.683,/,/,/,/,0.6,-2.4
COc1ccc(CCNC(=O)CC(=O)N/N=C/c2ccc(C(=O)O)cc2)cc1OC,0.4,2.0,/,/,i,6.0,7.2,-6.4,-3.3,3.6
